LANA-H2A inh: blocks KSHV LANA binding to histone H2A/H2B. cell-free LANA-H2A/H2B peptide, fluorescence polarization. inhibition, % (concentration not given with the values). hit rate 0.6% among 320,000; in the data active means inhibition mostly above about 10%, no sharp cut-off; inactive means mostly below about 6.7%;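 further: stock transfer was 7.5 nL into about 10 µL; 0% = median of vehicle wells and 100% = median of positive control wells; one replicate is shown; the record names a cut of 25% in any replicate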
B2AR ag: human beta-2 adrenergic receptor agonism by FAP. P07550. AID 504454. hit rate 0.43% among 340,000. response, % (concentration not given with the values). Am2.2-beta2AR cells, FAP receptor internalization, flow cytometry; reference of the scale not given here;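 active means response above a set limit, near 3 SD of response in nonfluorescent compounds, cut at about 42% in these data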;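 further: stock transfer was 100 nL into about 11 µL; a reference agonist was the positive control; negative values mostly stem from fluorescent compounds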
Target sequence (P07550 whole entry, looked up): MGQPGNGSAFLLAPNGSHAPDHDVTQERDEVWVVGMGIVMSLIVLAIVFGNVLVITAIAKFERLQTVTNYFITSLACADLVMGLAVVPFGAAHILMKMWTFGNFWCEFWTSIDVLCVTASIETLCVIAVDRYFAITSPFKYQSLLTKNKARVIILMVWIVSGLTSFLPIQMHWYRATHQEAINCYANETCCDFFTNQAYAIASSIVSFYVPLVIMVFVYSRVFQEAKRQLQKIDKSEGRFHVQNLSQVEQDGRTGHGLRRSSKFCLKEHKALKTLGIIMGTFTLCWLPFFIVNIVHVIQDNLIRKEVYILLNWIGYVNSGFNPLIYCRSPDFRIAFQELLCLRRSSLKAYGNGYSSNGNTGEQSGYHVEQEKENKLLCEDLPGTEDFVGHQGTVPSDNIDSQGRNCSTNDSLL
RanGTP-Impb inh: disruptors of Ran-importin-beta complex formation – biochemical, FRET, CFP-Ran, YFP-importin-beta, homogeneous, primary screen | cell-free CFP-Ran/YFP-importin-beta FRET ratio | inhibition, % (no concentration beside the values) | hit rate 1.1% among 300,000 | AID 2216;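 active means most replicates above 15%; inconclusive means exactly half above 15%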;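 further: 0% = DMSO wells and 100% = Ran loaded with GDP instead of GTP; wells of about 40 µL received 100 nL stock; the first replicate is given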
Calb FLC: affects C. albicans growth with fluconazole | hit rate 0.57% among 300,000 | growth inhibition, % (no concentration beside the values) | C. albicans CaCi-2 (fluconazole-resistant clinical isolate) + fluconazole, Alamar Blue growth, 48 h;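 active means most replicates above 75%; inconclusive means exactly half above 75%; inactive means most below 75%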;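 further: all wells also contain fluconazole at 8 µg/ml as a sub-toxic cotreatment; 0% = median of DMSO wells and 100% = median of geldanamycin control wells; wells of about 8 µL received 7.5 nL stock; the first replicate is given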
HNF4A DNA FP: change in binding of human HNF4 alpha to DNA; hit rate 0.3% among 360,000; HNF4a-FITC DNA binding, fluorescence polarization, 1 h; activity change, % at 10 µM; in the data active means activity change above about 30%, passing the limit was not always enough;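 further: controls were the assay level and a saturating level of protein; the project sought stronger binding though the title names inhibitors; some compounds called inactive have numbers as strong as hits; positive values seem to mean higher polarization but the record does not say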
Vif TR-FRET: HIV-1 Vif–A3G interaction blockers – biochemical, TR-FRET, GST-Vif 1-94, biotin-A3G peptide, dose response retest, primary screen (AID 1117319); TR-FRET GST-Vif / biotin-A3G peptide binding; higher % means a stronger effect; test concentration not given here; strong numbers were not always called active; inhibition, %, or IC50 in µM where a hit was titrated; hit rate 0.57% among 260,000;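 active means above the screen mean plus three standard deviations and confirmed in dose response; inconclusive means results disagree or hit not tested in dose response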;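 further: Vif residues 1-94 fused to GST binding biotinylated APOBEC3G peptide 110-148; 0% = full assay without inhibitor and 100% = GST in place of GST-Vif; retest series ran down from 100 µM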
ALR H2O2 inh: human ALR oxidase inhibition via reduced H2O2; P55789; purified ALR, DTT oxidation, H2O2 HRP-luminol luminescence; inhibition, % (no concentration beside the values); hit rate 3.8% among 290,000; AID 485317;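 active means mean and each replicate at 75% or more; inconclusive means only one of the two met; inactive means neither met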;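 further: stock transfer was 7.5 nL into about 7.5 µL; 0% = neutral wells and 100% = wells with inactivated enzyme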
Target sequence (P55789 whole entry, looked up): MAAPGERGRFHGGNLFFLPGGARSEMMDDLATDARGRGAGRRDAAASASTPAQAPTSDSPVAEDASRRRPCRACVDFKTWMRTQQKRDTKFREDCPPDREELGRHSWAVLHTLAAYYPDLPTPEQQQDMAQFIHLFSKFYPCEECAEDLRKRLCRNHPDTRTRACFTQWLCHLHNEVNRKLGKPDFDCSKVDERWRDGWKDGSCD
* marks the source's active call; other numbers are inactive results; ? = inconclusive; / = not tested or not shown; & = joins results of further samples.

Every second line gives: LANA-H2A inh, B2AR ag, RanGTP-Impb inh, Calb FLC, HNF4A DNA FP, Vif TR-FRET, ALR H2O2 inh
(1) Cc1ccc2cc(-c3noc(C(C)(C)C)n3)c(=O)[nH]c2c1
 : 2.8, -4, -2.0, 7, -0.2, -13%, -20
(2) O=C(CN1C(=O)NC2(CCOc3ccccc32)C1=O)Nc1cccc([N+](=O)[O-])c1 (stereo not given)
 : -4.1, -4, /, /, -1.8, /, 14
(3) COc1cccc(C2CCCN2Cc2nc(-c3cnccn3)no2)c1 (stereo not given)
 : 1.7, -7, 0.1, 6, -1.1, 1%, /
(4) C/C(=N/NC(=O)CNC(=O)CCc1ccccc1)c1ccc(Cl)cc1
 : -8.9, -8, -3.2, -12, -2.2, 1%, -1
(5) COc1ccc(NC(=O)CSc2nnc(NC(=O)c3ccc(S(=O)(=O)N4CCOCC4)cc3)s2)cc1
 : -1.0, 7, -1.2, -4, -1.8, /, 9
(6) Cc1cc(Br)cc2c(C(=O)Nc3c(C)n(C)n(-c4ccccc4)c3=O)cc(-c3cccs3)nc12
 : 1.3, 10, -3.4, 17, -1.4, -1%, -1
(7) CCOc1ccc(CN2CCN(Cc3cccn3-c3ncccn3)CC2CCO)cc1 (stereo not given)
 : -2.2, -123, -1.2, 4, 1.9, -2%, 1
(8) CCn1c(=O)c2sccc2n(CC(=O)NC2CCCC2)c1=O
 : 4.2, -1, -5.0, -2, 3.8, /, -9
(9) CCCCCCSc1cc(-c2nc3cc(C)ccn3c2NCCCC)ccc1OC
 : 0.6, 1, 4.5, 3, -2.8&3.2, /, /
(10) Cc1ccc(NC(=O)CN2C(=O)c3ccccc3C2=O)cc1
 : 1.8, -1, 4.7, 6, -2.4, /, 0
(11) CCN(c1ccccc1)S(=O)(=O)c1ccc(F)c(C(=O)O)c1
 : 0.5, 3, -0.5, -1, 1.8, -1%, -8
(12) CC1Cc2ccccc2N1C(=O)C1CCCN(S(=O)(=O)c2cccc3cccnc23)C1 (stereo not given)
 : -6.8, -7, /, /, 3.5, 2%, -9
(13) CSCC[C@H](NC(=O)N1CCn2c1nc1ccccc12)C(=O)NCC1CCCO1 (stereo not given in full)
 : 1.5, 0, 0.1, -5, -2.5, 3%, 26
(14) O=[N+]([O-])c1cccc(-c2cnc3ccccc3n2)c1
 : -0.9, -12, 1.8, -4, -4.2, 1%, 0
(15) O=S1(=O)N=C(N2CCN(Cc3ccccc3)CC2)c2ccccc21
 : 6.8, 6, -1.1, -7, -1.1, 32%, -2
(16) COc1ccc(Nc2nnc(SC(C(=O)Nc3ccc(OC)c(Cl)c3)c3ccccc3)s2)cc1 (stereo not given)
 : -7.3, 15, 1.8, -18, 5.0, -3%, -11
(17) CCOc1ccc(CCNC(=O)CS(=O)Cc2nc(-c3ccc(OC)c(OC)c3)oc2C)cc1OCC (stereo not given)
 : 2.1, -3, 1.6, 1, 1.4, /, 99*
(18) COc1cccc(NC(=O)NNC(=O)C(C)Oc2ccc3ccccc3c2)c1 (stereo not given)
 : -0.6, -6, -1.2, 12, -1.3, /, 3
(19) CC1(C)CC(=O)C2=C(C1)OC(N)=C(C#N)C2c1ccoc1 (stereo not given)
 : -4.7, 2, -7.5, -11, 3.8, ?, 21
(20) Cc1ccc(-n2ncc3c(NNC(=O)Cc4ccccc4)ncnc32)cc1
 : -5.8, 1, ?, -3, 3.4, -3%, 7
(21) CN(C#N)c1nccc(-c2cccs2)n1
 : -0.4, -10, 3.2, -7, 2.2, -7%, -4
(22) C=CCNC(=O)COC(=O)c1ccc(Sc2nncn2C)c([N+](=O)[O-])c1
 : 2.7, 8, 1.7, -3, -0.5, 2%, -12
(23) Cc1[nH]nc2c1C(c1ccoc1)C(C#N)=C(N)O2 (stereo not given)
 : 1.2, -4, 21*, -3, 1.5, 11%, /
(24) Cc1ccc(C)c(NC(=S)NNC(=O)c2csc3c2CCC(C)C3)c1 (stereo not given)
 : 1.6, -16, -5.7, 72, -0.1, 2%, 2
(25) COc1cc(C2C3=C(COC3=O)Oc3cc4c(cc32)OCO4)cc(OC)c1O (stereo not given)
 : /, 13, /, /, -6.0, 1%, /
(26) CCOCCN1CCN(c2c(C)c(C)nc3cc(-c4cc(OC)cc(OC)c4)nn23)CC1
 : -0.7, 0, 1.7, 7, 0.0, 4%&-4%, -1
(27) O=C(CN1CCN(c2ccccc2F)CC1)NC(=O)NCc1ccccc1
 : 1.5, -4, -0.5, 40, -2.5, 15%, -2
(28) Cc1[nH]nc2c1C1(C(=O)Nc3ccc([N+](=O)[O-])cc31)C(C#N)=C(N)O2 (stereo not given)
 : -0.5, 3, -3.3, -5, 1.9, 4%, 0
(29) COc1cc(C=O)ccc1OCc1ccncc1
 : -4.1, 3, -2.1, -2, 3.7, /, -8
(30) Cc1ccc(NC(=O)C(CC(C)C)NC(N)=O)cc1Cl (stereo not given)
 : 2.3, 4, 0.1, ?, 13, /, -2
(31) CCCCCCOC1(c2ccccc2)OC(=O)c2ccccc21 (stereo not given)
 : 6.7, 31, -0.1, -12, -2.6, -3%, -7
(32) COc1ccc(NC(=O)C2CCC(C(C)(C)C)CC2)cc1S(=O)(=O)N1CCOCC1 (stereo not given)
 : /, 6, /, /, 2.4, 1%, -8
(33) C=CCc1c(N(CC)CC)nc(C)[nH]c1=O
 : 0.7, -13, 13, 5, 0.4, ?, -5
(34) C/C(=N\Nc1ccc(C(F)(F)F)cc1[N+](=O)[O-])C1CC1
 : -2.7, 1, 2.2, 1, -2.7, -5%, -5
(35) CCOC(=O)c1cc2c(=O)n3ccccc3nc2n(C(C)C)c1=NC(=O)c1c(-c2c(F)cccc2Cl)noc1C
 : -0.4, -4, 90*, 19, 7.9, /, /
(36) COc1ccc(C(=O)c2c(-c3ccsc3)oc3ccc(-c4ccc(OC)cc4)cc23)cc1
 : 0.7, /, -0.6, 2, /, /, -3
(37) O=C(Nc1ccc(F)cc1)c1cccnc1N1CCCCC1
 : 1.3, -4, ?, 2, 1.8, 9%, 2
(38) CN(CC(=O)Nc1ccc(Cl)c(Cl)c1)Cc1nnc(-c2ccc(F)cc2)o1
 : -0.6, -2, 1.0, -12, -3.4, -5%, -10
(39) Cc1ccc(CSCCNS(C)(=O)=O)cc1
 : 2.4, 5, -1.9, -1, 1.1, 4%, -3
(40) Cc1cc(NC(=O)CSc2n[nH]c(-c3ccc(Cl)cc3Cl)n2)no1
 : 0.2, -7, /, /, 3.0, 10%, -1
(41) COc1cccc(CN2CCNC(=O)C2CC(=O)NCCCN2CCCC2=O)c1 (stereo not given)
 : 3.2, 6, -1.0, 21, -1.1, 1%, -57
(42) O=C1CN(C(=O)COC(=O)c2ccccc2NCc2ccco2)c2ccccc2N1
 : -1.5, -7, 1.6, -13, -1.7, 5%, -9
(43) COc1ccc(OCC(=O)N2c3ccc(C)cc3C3CN(C)CCC32)cc1 (stereo not given)
 : 25*, 12, -6.9, 0, 0.0, -8%, 14
(44) COc1ccc(-c2n[nH]c(=S)n2Cc2ccccc2)cc1OC
 : -0.5, 2, -0.5, 4, 3.3, 7%, 42
(45) Cc1scc(C(=O)NNC(=S)NC(C)c2ccccc2)c1C (stereo not given)
 : -0.8, -2, 0.3, -6, -3.4, 28%, 21

Two compounds drawn at random from those above, as already listed:
Every second line gives: LANA-H2A inh, B2AR ag, RanGTP-Impb inh, Calb FLC, HNF4A DNA FP, Vif TR-FRET, ALR H2O2 inh
(34) C/C(=N\Nc1ccc(C(F)(F)F)cc1[N+](=O)[O-])C1CC1
 : -2.7, 1, 2.2, 1, -2.7, -5%, -5
(35) CCOC(=O)c1cc2c(=O)n3ccccc3nc2n(C(C)C)c1=NC(=O)c1c(-c2c(F)cccc2Cl)noc1C
 : -0.4, -4, 90*, 19, 7.9, /, /

New compounds follow
Every second line gives: LANA-H2A inh, B2AR ag, RanGTP-Impb inh, Calb FLC, HNF4A DNA FP, Vif TR-FRET, ALR H2O2 inh
(46) CC(NC(=O)C(=O)NCCN1CCN(C(=O)c2ccc([N+](=O)[O-])cc2)CC1)c1ccccc1 (stereo not given)
 : -4.5, 0, 1.7, -2, 1.9, /, 1
(47) COC(=O)/C(C#N)=C(/Nc1ccc(F)c(Cl)c1)C(F)(F)F
 : -2.4, -5, ?, -1, 9.4, -4%, -1
(48) O=C(O)c1ccn2c(C(=O)c3ccccc3)c(-c3ccccc3)cc2c1
 : 0.2, 2, -20, -3, 5.9, 2%, 10
(49) CCOc1ccc(CN(C)C(=O)CNC(=O)C2CCCCC2)cc1
 : -4.7, -7, -0.1, -7, 0.7, /, /
(50) O=C(CSc1nc(-c2ccncc2)nn1CC(=O)N1CCCCC1)NC1CCCC1
 : /, -10, 8.1, 0, 1.8, 0%, /
(51) CCN(CC(=O)Nc1ccc2c(c1)OCCO2)C(=O)c1cc(=O)[nH]c2ccccc12
 : 4.7, 0, -4.7, /, 1.3, 1%, -3
(52) O=C(CN1CCN(c2ccccn2)CC1)N(c1ccccc1)c1ccc2ccccc2c1
 : -1.3, -5, /, /, 3.2, 6%, -10
(53) COc1ccc(C(=O)NCCN2CCOCC2)c(OC)c1
 : 2.1, 6, 7.2, -19, 2.8, -6%, 15
(54) Cc1cc(=O)oc(C)c1C(=O)NCC(C)NC(=O)c1c(C)cc(=O)oc1C (stereo not given)
 : -3.8, -3, 0.8, /, -0.1, 1%, -8
(55) O=C(c1cccnc1)N1CCN(c2ccc([N+](=O)[O-])cc2Cl)CC1
 : 3.8, 3, -1.4, 9, 3.8, /, 0
(56) CC1Cc2ccccc2N1S(=O)(=O)c1cccc(C(=O)N2CCN(c3ncccn3)CC2)c1 (stereo not given)
 : -1.6, 4, -2.0, 19, -3.1, /, -4
(57) CC1(C)CC(C(N)=S)CCO1 (stereo not given)
 : -3.8, -3, 8.1, 35, -2.2, 5%, -8
(58) CCCn1c(=O)[nH]c(=O)c2[nH]cnc21
 : 7.8, -1, ?, -4, 0.1, 1%, 4
(59) COc1ccccc1Nc1nc(C)cc(=O)[nH]1
 : 1.5, 8, -0.4, -1, -2.2, 12%, -10

By substructure: the compounds so far with fluorine
Every second line gives: LANA-H2A inh, B2AR ag, RanGTP-Impb inh, Calb FLC, HNF4A DNA FP, Vif TR-FRET, ALR H2O2 inh
(11) CCN(c1ccccc1)S(=O)(=O)c1ccc(F)c(C(=O)O)c1
 : 0.5, 3, -0.5, -1, 1.8, -1%, -8
(27) O=C(CN1CCN(c2ccccc2F)CC1)NC(=O)NCc1ccccc1
 : 1.5, -4, -0.5, 40, -2.5, 15%, -2
(34) C/C(=N\Nc1ccc(C(F)(F)F)cc1[N+](=O)[O-])C1CC1
 : -2.7, 1, 2.2, 1, -2.7, -5%, -5
(35) CCOC(=O)c1cc2c(=O)n3ccccc3nc2n(C(C)C)c1=NC(=O)c1c(-c2c(F)cccc2Cl)noc1C
 : -0.4, -4, 90*, 19, 7.9, /, /
(37) O=C(Nc1ccc(F)cc1)c1cccnc1N1CCCCC1
 : 1.3, -4, ?, 2, 1.8, 9%, 2
(38) CN(CC(=O)Nc1ccc(Cl)c(Cl)c1)Cc1nnc(-c2ccc(F)cc2)o1
 : -0.6, -2, 1.0, -12, -3.4, -5%, -10
(47) COC(=O)/C(C#N)=C(/Nc1ccc(F)c(Cl)c1)C(F)(F)F
 : -2.4, -5, ?, -1, 9.4, -4%, -1

Source: PubChem (several laboratories)
